# Compound activity (PubChem)
# hNpr1 antagonist: antagonists of human natriuretic peptide receptor Npr1 | P16066 | HEK293 hNpr1 GloSensor cGMP, ANP-stimulated luminescence | Potency, µM (titrated, usually from 46.3 µM), for the others: top-dose activity change, negative = inhibition, actives largely listed as inhibitors | actives 1.6% (n = 76,000) | AID 1347048; active = well fitted inhibition curve with a large enough effect; inconclusive = small, poorly fitted or top-dose-only effect; inactive = no such curve, though single readings can be large or run the other way;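 further: nearly all actives have a fitted effect of over 60% in size; nearly all hits also lower the signal before the agonist is added; a reference antagonist and vehicle were the controls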
# Target sequence (P16066 whole entry, looked up): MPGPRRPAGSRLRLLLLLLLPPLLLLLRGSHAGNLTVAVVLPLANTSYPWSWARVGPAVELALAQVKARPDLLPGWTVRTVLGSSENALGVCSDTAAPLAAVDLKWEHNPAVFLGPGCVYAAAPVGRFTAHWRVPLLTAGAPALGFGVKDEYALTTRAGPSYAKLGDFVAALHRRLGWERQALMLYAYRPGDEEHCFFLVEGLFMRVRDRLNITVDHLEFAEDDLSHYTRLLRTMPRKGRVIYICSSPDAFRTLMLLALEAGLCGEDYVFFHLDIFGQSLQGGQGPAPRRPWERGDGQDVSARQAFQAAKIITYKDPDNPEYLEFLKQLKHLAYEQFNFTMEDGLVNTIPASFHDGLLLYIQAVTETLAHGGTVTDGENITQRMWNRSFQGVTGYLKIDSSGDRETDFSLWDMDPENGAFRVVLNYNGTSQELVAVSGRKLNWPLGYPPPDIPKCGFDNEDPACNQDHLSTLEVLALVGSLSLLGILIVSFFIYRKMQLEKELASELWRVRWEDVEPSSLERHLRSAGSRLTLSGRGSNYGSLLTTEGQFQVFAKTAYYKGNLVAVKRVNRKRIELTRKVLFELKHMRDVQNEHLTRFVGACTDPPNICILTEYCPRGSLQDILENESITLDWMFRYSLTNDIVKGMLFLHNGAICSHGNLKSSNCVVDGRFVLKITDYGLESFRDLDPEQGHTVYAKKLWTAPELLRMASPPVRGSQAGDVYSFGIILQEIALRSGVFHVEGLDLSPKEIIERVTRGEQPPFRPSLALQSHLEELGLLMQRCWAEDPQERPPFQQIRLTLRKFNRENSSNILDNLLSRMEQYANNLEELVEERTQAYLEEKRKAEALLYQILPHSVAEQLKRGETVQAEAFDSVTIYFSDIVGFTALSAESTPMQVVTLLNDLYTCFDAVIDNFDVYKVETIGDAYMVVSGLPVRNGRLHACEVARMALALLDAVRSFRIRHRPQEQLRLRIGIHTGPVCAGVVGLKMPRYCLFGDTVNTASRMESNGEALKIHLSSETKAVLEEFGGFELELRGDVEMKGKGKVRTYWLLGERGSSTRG
#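 Compound pre-incubated 30 min at room temperature on GloSensor-loaded HEK293 cells stably carrying hNpr1 and the pGS-40F cGMP biosensor. Stimulation uses hNppA at 0.1 nM final; luminescence is taken at baseline and 20 min post-agonist.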
# The depositor's hits bear a star; ? = inconclusive; [ ] = another dose, or the depositor's remark. On the % scale 0 is the no-effect control and ±100 the full control effect; potency means the concentration at half of the fitted maximal effect.
Structure	hNpr1 antagonist
O=C(NC[C@H]1OC[C@@H](NCc2ccccn2)[C@@H]1O)c1ccccc1	1%[70.6 µM]
O=C(O)CCC(=O)NC[C@H]1Cn2c(-c3cccc(Cl)c3)cnc2CO1	2%[70.6 µM]
CCO[C@H]1CN(Cc2cnc(-c3ccccc3C)s2)C[C@@H]1O	0%
CNC(=O)[C@@H](c1ccccc1)N1CCC[C@H]1C(=O)N1CCC1	1%[70.6 µM]
O=C(Cc1cccnc1)N[C@H]1CCOC[C@H]1C1CCOCC1	5%
COCCOc1ccc2c(n1)CCN(C(=O)c1ccccc1C)C2	-4%
O=C(C1CCOCC1)N1CCN(C(=O)N2CC3CC(C2)[C@H]2CCCC(=O)N2C3)CC1 (stereo partly specified)	2%
COc1cccc(CCc2nc(-c3nnn4c3COC(c3ccc(Cl)cc3)C4)no2)c1 (stereo unspecified)	10%
CN1C(=O)C(c2ccccc2)CC12CCN(C(=O)c1cccc(O)c1)CC2 (stereo unspecified)	-4%
O=c1c2nc(OCc3ccccc3)ccc2ncn1Cc1ccccc1	-22%[70.6 µM]
NC(=O)CO[C@@H]1CO[C@H]2[C@@H]1OC[C@@H]2NC(=S)NC1CCCCC1	2%[70.6 µM]
COCC(=O)NCC1c2cc(OC)c(OC)cc2CCN1C(=O)Nc1cccc(F)c1 (stereo unspecified)	8%
CC(C)Cn1c(CNC(=O)OC(C)(C)C)nc2cccnc21	5%[70.6 µM]
COCCc1noc(C2Cc3ccccc3N2C(=O)Nc2cc(OC)cc(OC)c2)n1 (stereo unspecified)	-2%
COc1ccc(C(=O)N2CCn3c(nnc3[C@@H]3C[C@@H](O)CN3Cc3ccccc3)C2)cc1	5%
CCC1(C(=O)NCc2ccc(C(C)C)cc2)CCCCC(=O)N1 (stereo unspecified)	-24%
COc1ccc(NC(=O)N2C[C@@H]3C[C@H](C2)c2ccc(NS(=O)(=O)c4ccc(NC(C)=O)cc4)c(=O)n2C3)cc1	3%
CCOc1cc(=O)n2c(c1C(=O)Nc1ccc(F)c(F)c1)CCCC2	0%
CC1Oc2ccc(NC(=O)c3c(F)cccc3F)cc2CN(Cc2ccccc2F)C1=O (stereo unspecified)	-2%
COCc1cc(C[C@@H]2CC[C@H](O)[C@@H](CN(C)C)O2)no1	0%[70.6 µM]
CCC(C)NC(=O)C1CC(c2ccccc2)CN(C(=O)NCc2ccccc2)C1 (stereo unspecified)	-4%
COc1cc(F)ccc1-c1ccc2ncn(C3CC3)c(=O)c2n1	-1%[70.6 µM]
COc1ccc(-c2nc(-c3nnn4c3COC(c3ccc(OC)cc3)C4)no2)cc1 (stereo unspecified)	-1%
Cc1ccc(NC(=O)Cn2c(C)cc3nc4n(c(=O)c32)CCC4)cc1Cl	0%
Cc1cccc(C(=O)NCC23CCC=C2N(C)C(=O)CC3)c1 (stereo unspecified)	-2%
COCC(=O)NC[C@H]1O[C@H](Cc2cc(CN3CCNCC3)on2)CC[C@@H]1O	8%[70.6 µM]
O=C(NC[C@H]1OC[C@@H](NCc2ccccc2O)[C@@H]1O)c1ccc(F)cc1	-2%[70.6 µM]
CN(C)C1CCN(c2ncc(C(C)(C)C(=O)O)c(N3CCOCC3)n2)C1 (stereo unspecified)	10%
Cc1noc(C)c1-c1ccc(S(=O)(=O)N[C@@H]2[C@@H](N)[C@H]3CCO[C@H]32)s1	1%
CC(C)NC(=O)N1CCC[C@@H](O)[C@H](NC(=O)c2ccc(OCCN3CCOCC3)cc2)C1	1%

# 2 entries picked at random from the list so far, as already listed:
Structure	hNpr1 antagonist
CCC(C)NC(=O)C1CC(c2ccccc2)CN(C(=O)NCc2ccccc2)C1 (stereo unspecified)	-4%
O=C(NC[C@H]1OC[C@@H](NCc2ccccc2O)[C@@H]1O)c1ccc(F)cc1	-2%[70.6 µM]

# Continuation:
Structure	hNpr1 antagonist
Cc1nnc([C@H]2CCN(Cc3cc4ccccc4o3)C2)o1	5%[70.6 µM]
Cc1ccc(S(=O)(=O)N2CCc3nc(N(C)Cc4cccnc4)[nH]c(=O)c3CC2)cc1	-8%
COCCN1C(=O)c2ccccc2C(C(=O)NC(C)C)C12CCCCC2 (stereo unspecified)	-1%
Cc1ncsc1CN1CCC(N2C(=O)C(OCC3CC3)C23CCCCC3)CC1 (stereo unspecified)	-2%
N#Cc1cccc(NC(=S)O[C@@H]2CO[C@H]3[C@@H]2OC[C@@H]3n2nnnc2SCc2ccco2)c1	?
O=C(O)C1(Oc2ccc3ccccc3c2)CCN(Cc2ccc(CO)o2)CC1	5%
O=C(Cn1ccn2nc(-c3ccc(F)cc3)c(CO)c2c1=O)N1CCCC1	3%
CN1CCN(c2nc3c(c(=O)[nH]2)CCN(Cc2cn(C)c4ccccc24)CC3)CC1	1%
COc1cccc(N2C(=O)[C@@H]3C[C@@H](NC(=O)C4CCN(c5nccc(C(F)(F)F)n5)CC4)CCN3C2=O)c1	-2%
O=C1c2c(nc(COc3cccc(N4CCOCC4)c3)n2Cc2ccccc2)NCCN1CC1CC1	5%

# (cont.)
mol	hNpr1 antagonist
C=CCN1C[C@@H]2CN(C(=O)c3cccc(Cl)c3C)C[C@]2(C(=O)O)C1	0%
COc1cccc(N2CC(C(=O)N3CCC(C(=O)N4CCOCC4)C3)NC2=O)c1 (stereo unspecified)	22%
CC(=O)N[C@H]1CO[C@H]2[C@@H]1OC[C@H]2OCC(N)=O	14%[70.6 µM]
COCc1cc(C[C@@H]2CC[C@H](O)[C@@H](CNCc3ccc(Cl)cc3)O2)no1	-3%[70.6 µM]
COc1ccc(Nc2cnc3ccc(N(C)Cc4cccnc4)nn23)cc1	-15%[70.6 µM]
COc1nc2c(cc1CNC(=O)c1ccn[nH]1)C(=O)N(CCc1ccccn1)C2	-3%
COCC1CN(C(C)=O)CC12CCN(C(=O)NCc1ccc(C)cc1)CC2 (stereo unspecified)	4%
CCC[C@@H]1CN(C(=O)CCn2cc(Cl)cn2)C[C@H]1C(=O)O	2%
COc1cccc(CC(=O)N2CCN(c3cc(-c4ccc(Cl)cc4)[nH]n3)CC2)c1	?
O=C(NC(C(=O)N1CCCC1)C1CCN(C(=O)c2ccccc2)CC1)c1ccc(F)cc1 (stereo unspecified)	-7%
O=C(c1ccccc1F)N1CCC2(CC1)N=C(c1ccccc1)NO2	-13%
CN1CCN(Cc2nc(C3(O)CCN(Cc4ccccc4F)CC3)cs2)CC1	2%[70.6 µM]
COc1ccc(NC(=O)N2CCC(Oc3ccc(-c4noc(C5CC5)n4)cc3)C2)cc1 (stereo unspecified)	?
CN(Cc1cc2n(n1)CCCNC2)CC1COCCO1 (stereo unspecified)	2%
CC1(c2ccccc2)N(Cc2ccccc2F)C(=O)OC12CCN(C(=O)CCc1ccccn1)CC2 (stereo unspecified)	3%
O=S(=O)(c1cccc(F)c1)N1CC[C@@H]2COCCN(Cc3ccccc3)[C@@H]2C1	-9%
O=c1n(-c2ccc([N+](=O)[O-])cc2)nc2n1CCN(Cc1ccsc1)C2	-25%[70.6 µM]
O=S(=O)(c1ccc(C(F)(F)F)cc1)N1CC(c2nc(-c3ccncc3)no2)C1	?
Cc1cc(C)n(CCC(=O)N2CCC(C3CCN(S(C)(=O)=O)CC3)C2)n1 (stereo unspecified)	5%
Cc1cccc(NC(=O)N2CCC3(CC2)SCC(=O)N3Cc2ccco2)c1	-8%
Cc1ccc(C)c(Cn2c(-c3cccc(Cl)c3)nc(C)c(CCO)c2=O)c1	-15%
CNC(=O)N1C[C@@H](Oc2ccccc2)C[C@H]1C(=O)N1CCOCC1	-1%
CCc1nncn1C1CCN(S(=O)(=O)c2ccccc2)CC1	-7%
COc1cc(OC)cc(C(=O)NCC2CCCN(C(=O)CCNC(C)=O)C2)c1 (stereo unspecified)	7%
Clc1ccc(CN2CCOC[C@H](Oc3cccnc3)C2)cc1	-13%[70.6 µM]
O=C(c1nnc(CNC2CCOCC2)n1-c1ccccc1)N1CCC[C@@H]1C(c1ccccc1)c1ccccc1	-1%
CC(C)n1nc(OC(C)(C)C(=O)NCC2CCOCC2)c2cc(CN3CCOCC3)ccc21	4%
COc1ccc(Cl)cc1-c1ccc2c(c1)C(=O)N1CC[C@H](NC(=O)c3cccs3)C[C@H]1C(=O)N2	-25%
Cc1cnc(C2CC2)n1C1CCCN(C(=O)CC(C)C)C1 (stereo unspecified)	0%
CC(=O)N1CCc2nc(C3CC3)nc(-c3ccc(Cl)cc3)c2C1	3%[70.6 µM]
CCOc1ccc(CC(=O)NCCn2ccn3nc(-c4ccc(C)cc4C)cc3c2=O)cc1	?
CC(C)CN1C(=O)CCc2cc(NC(=O)c3ccc4c(c3)OCO4)ccc21	-13%
CN1CCCCCC(O)c2cc(C(=O)N3CCN(c4ccc(F)cc4)CC3)ccc21 (stereo unspecified)	-27%
O=C(Cn1cccc1-c1nc(-c2ccc3c(c2)OCO3)no1)Nc1ccc(F)cc1	-1%
Cc1cn2nc(C(=O)NCc3ccco3)cc2c(=O)[nH]1	3%
O=C(Nc1ccccc1)N1CCC(c2nc(CCOc3ccc(F)cc3)no2)C1 (stereo unspecified)	?
Cn1cc(CN2C[C@@H](F)[C@@H](OCc3nc4ccccc4n3C)C2)cn1	-11%[70.6 µM]
COCC1CN(C)CC12CCN(Cc1ccc(C#N)cc1)CC2 (stereo unspecified)	1%
Cc1nc(N2CCC(C(=O)NC3CCC(C)CC3)CC2)cc(C(F)(F)F)n1 (stereo unspecified)	-6%
COCCOCC(=O)NCCc1noc(-c2cccnc2)n1	3%
CCc1cc(=O)[nH]c(N2CCOCC2)n1	-1%
CCCCc1nn(CC(=O)NCc2nc3c(s2)CCCC3)c(=O)n1CC	4%
COc1ccc(C(=O)N2CCC(N3CC4CCCN4C3=O)CC2)cc1 (stereo unspecified)	0%
Cc1nn2c(c1-c1ccccc1N1CCCC1)N(C(=O)c1ccn(C)n1)CCC2	2%[70.6 µM]
O=C(NCC1CN(CC2CC2)CC12CN(c1ccccc1)C2)c1ccccc1 (stereo unspecified)	-16%[70.6 µM]
CCCCCC(=O)Nc1nc2c(s1)C[C@@H]1[C@](C)(CO)[C@H](O)CC[C@@]1(C)[C@@H]2CC(=O)NC1CCCCC1	6%
COc1cc(OC)cc(C(=O)N2CCC3(CC2)N=C(c2ccccc2)NO3)c1	1%
CCOc1cccc(CN2CCC([C@@H]3CNC[C@H]3CO)CC2)c1	-2%
COc1ccc(CN2CCc3ncc(C(=O)NCc4ccc5c(c4)OCO5)n3CC2)cn1	-3%[70.6 µM]
COCCNC(=O)C[C@@H]1C[C@H]2O[C@H](CNC(=O)NC3CCC3)[C@@H](O)[C@H]2O1	0%[70.6 µM]
Cc1ccc2c(c1)N1C(=O)OC[C@@H]1CCN(S(C)(=O)=O)C2	4%[70.6 µM]
CN1C(=O)CC(C(=O)O)C12CCN(Cc1cnc(CC3CCCC3)[nH]1)CC2 (stereo unspecified)	5%
CN(C)c1nsc(N2CCC3(CC2)C(C(=O)O)CC(=O)N3C)n1 (stereo unspecified)	5%
COCCOc1ccnc(-c2noc([C@@H]3CCCN3CC3CC3)n2)c1	0%[70.6 µM]
COc1cccc(-c2cnc([C@@H]3COCCN3Cc3cnc4ccccc4c3)[nH]2)c1	-28%[70.6 µM]
CS(=O)(=O)NCC(=O)N1CCCCCNC(=O)CC1c1ccccc1 (stereo unspecified)	1%
O=C(c1ccoc1)N1CCC2(CC1)CC(N(C(=O)c1ccccc1)C1CC1)CCO2 (stereo unspecified)	4%
O=C(NCC1CN(Cc2cccnc2)CC12CN(c1ccccc1)C2)Nc1ccccc1 (stereo unspecified)	2%[70.6 µM]
O=C(c1ccccc1)N1Cc2ccccc2NC(=O)C12CCNCC2	-2%
CC1=C[C@@H](CNC(=O)Cn2cnnn2)[C@H](C(C)C)C[C@H]1Cc1nc2ccncc2[nH]1	2%[70.6 µM]

# New compounds follow:
mol	hNpr1 antagonist
N#Cc1ccc(C(=O)N2CCCN(CCc3ccccc3)c3ccccc32)cc1	?
Cc1ccc(C)c(NC(=O)C2CC(=O)N(c3n[nH]c4cc(Br)ccc34)C2)c1 (stereo unspecified)	-9%
Cc1scc(C(=O)NC2CC(c3cc(=O)[nH]c(N)n3)C2)c1-c1ccccc1 (stereo unspecified)	-4%
Cc1cc(C(=O)N2CCc3nn(Cc4ccccc4)c(=O)n3CC2)n(C)n1	0%
Cc1cc(C)n(CC(=O)NC2CCc3nn(CC4CC4)c(=O)n3CC2)c(=O)n1 (stereo unspecified)	3%
COCCN[C@@H]1C[C@@H]2c3[nH]c4ccccc4c3C[C@@H](C(=O)OC)N2[C@H](c2cccc(OC)c2)C1	?
O=C1CC(Cc2cc(N3CCCCC3)ncn2)CN1c1ccccc1 (stereo unspecified)	-15%
CC1=NS(=O)(=O)N(C)C=C1C(=O)OCc1nc(-c2cccs2)no1	?
Cc1ccc(Cl)cc1NC(=O)N1CCCC(Cn2cnc3cccnc32)C1 (stereo unspecified)	-10%
O=C(CN1CCn2nc(C(O)CO)cc2C1)Nc1ccc(Cl)cn1 (stereo unspecified)	-1%
CCOc1ccccc1CN1C[C@@H](CO)[C@H](c2ccccn2)C1	-17%

# 6 entries from above, with values ahead of the structure.
hNpr1 antagonist | smiles
-4% | Cc1scc(C(=O)NC2CC(c3cc(=O)[nH]c(N)n3)C2)c1-c1ccccc1 (stereo unspecified)
-17% | CCOc1ccccc1CN1C[C@@H](CO)[C@H](c2ccccn2)C1
? | CC1=NS(=O)(=O)N(C)C=C1C(=O)OCc1nc(-c2cccs2)no1
-15% | O=C1CC(Cc2cc(N3CCCCC3)ncn2)CN1c1ccccc1 (stereo unspecified)
? | N#Cc1ccc(C(=O)N2CCCN(CCc3ccccc3)c3ccccc32)cc1
? | COCCN[C@@H]1C[C@@H]2c3[nH]c4ccccc4c3C[C@@H](C(=O)OC)N2[C@H](c2cccc(OC)c2)C1

# These rows are one share of the data (hit frequency here may not be typical).
